Assay outcomes: PubChem, National Center for Advancing Translational Sciences (NCATS)
Bst PK mod: modulators of Bacillus stearothermophilus pyruvate kinase; partly purified Bacillus stearothermophilus pyruvate kinase, luminescence ATP production; ribose 5-phosphate activator present at AC10; Potency, µM; 51,000 compounds, 1.2% hits; AID 361; in the data active means potency below about 11 µM; inconclusive means mostly about 12 µM to 25 µM; inactive means weaker than that;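 the screen sought inhibitors and activators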;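 also: potency is read from the fitted curve at half-maximal effect; scaled between full activation by ribose 5 phosphate and full inhibition by luteolin; about four in five hits inhibit and the cells do not say which; series up to 57 µM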
YjeE inh: displaces an ADP probe from E. coli YjeE (TsaE); AID 605; P0AF67; 71,000 compounds, 0.05% hits; purified YjeE, fluorescence polarisation of a bound ADP probe; Potency, µM; active = well fitted falling curve; inconclusive = weaker or top-dose-only fall, or a rising curve; inactive = flat or poorly fitted curve;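 also: top concentration of the series not given in the record; excess ADP was the control for the full effect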
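Purified YjeE (10 uM) with BODIPY Texas Red-labeled ADP probe (2 uM); compounds pin-transferred, 15 min at room temperature. Binding inhibition read as decreased fluorescence polarization; ADP titration as control.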
Active calls of the source: *; i = inactive; u = inconclusive; x = no result given. This is a subset (hit frequency here may not be typical).

SMILES	Bst PK mod	YjeE inh
CC(C)C(C(=O)NCc1ccco1)N(C(=O)CNS(=O)(=O)c1ccccc1)C1CCCC1 (stereo not given)	>57	i
Cc1cccc(NC(=O)C2CCCN2C(=O)OCC(C)C)c1 (stereo not given)	>57	i
Cc1c(C(=O)N2CCCCCC2)oc2ccccc12	>57	i
CC(CCc1ccccc1)NC(=O)C1CCN(S(=O)(=O)N2CCCCC2)CC1 (stereo not given)	>57	i
O=C1CN(C(=O)c2ccccc2)c2ccccc2N1	>57	i
CCOC(=O)N1CCC(Nc2ncnc3c2cnn3-c2ccc(Cl)cc2)CC1	>57	i
COc1ccccc1N(CC(=O)NCc1ccccc1)S(C)(=O)=O	>57	i
COc1cc(C(=O)N2CCN(S(=O)(=O)c3ccc(C)cc3)CC2)ccc1OCc1c(C)noc1C	>57	i
O=C(O)c1ccccc1C(=O)Nc1ccc(S(=O)(=O)Nc2nccs2)cc1	x	i
CC(NS(=O)(=O)c1ccccc1)C(c1cccs1)N1CCN(c2ccccc2)CC1 (stereo not given)	>57	i
N#CCSc1nnc(-c2ccc(S(=O)(=O)N3CCOCC3)cc2)n1CC1CCCO1 (stereo not given)	>57	i
COC(=O)[C@H](CCSC)NC(=O)NCc1ccc(S(N)(=O)=O)cc1	>57	i
CCOC(=O)C1CCN(C(=O)COc2ccc(S(=O)(=O)NC(C)C)cc2)CC1	>57	i
Cc1ccc(-n2c(SCC(=O)OC(C)C)nnc2-c2ccco2)cc1	>57	i
COc1ccc(N2C(=O)C3CCCN3C2c2ccccc2Cl)cc1 (stereo not given)	x	i
C=CCC(CC=C)(C(=O)O)c1ccccc1	>57	i
COc1ccc(CC(=O)NCc2ccccn2)cc1OC	>57	i
O=C(NCC(c1cccnc1)N1CCN(c2ccccc2)CC1)OCc1ccccc1 (stereo not given)	>57	i
O=C(Nc1nc(-c2cccs2)c(-c2ccccc2)s1)c1ccco1	>57	i
CCOc1cccc(OCCCCN2CCOCC2)c1	x	i
Cc1cc(N/C(=N\S(=O)(=O)c2ccc(Cl)cc2)c2ccc(F)cc2)no1	>57	i
Cc1ccc(S(=O)(=O)N(CC(=O)NCc2ccncc2)C2CCCCC2)cc1	>11.4	i
Nc1c(NCc2ccccc2)c2ccccc2oc1=O	>57	i
COc1ccc(Oc2ncc3nc(-c4ccc(F)cc4)c(=O)n(C4CC4)c3n2)cc1	x	i
CCSc1ccc2nnc(-c3ccc(F)cc3)n2n1	i	i
O=C1NCC(COCc2ccco2)O1 (stereo not given)	>57	i
O=C(Nc1ccc2c(c1)nc1n2CCOC1)c1ccccc1	x	i
Cc1csc2nc(CNS(=O)(=O)N(C)C)cn12	x	i
O=C(Nc1ccc2c(c1)OCO2)c1cccc(S(=O)(=O)N2CCCC2)c1	>57	i
O=C(c1cccc(F)c1)N1CCC2(CC1)CCN(c1ccc(-c3ccccc3)cc1)CC2	x	i
O=C(O)CSc1nnc(-c2ccc(S(=O)(=O)N3CCCC3)cc2)n1Cc1ccco1	>57	i
O=C(NCc1ccco1)C1CCCN(S(=O)(=O)c2cccc3nonc23)C1 (stereo not given)	>57	i
C1=C(CN2CCOCC2)COc2c1cccc2OC[C@@H]1CNCCO1	x	i
O=C(CC1SC(=NC2CCCCC2)NC1=O)Nc1ccccc1 (stereo not given)	>57	i
O=C(CCS(=O)(=O)c1cccc2nonc12)NC1CCCCCC1	>57	i
CCCCN(C(=O)c1cc(OC)c(OC)c(OC)c1)C1=CC2CCC(C1)N2C (stereo not given)	>57	i
Cc1ccccc1OCC(=O)Nc1ccc(N2CCN(C(=O)C(C)C)CC2)c(Cl)c1	>57	i
CCCCn1c(SCC(=O)N2CCCc3ccccc32)nc2c1c(=O)n(C)c(=O)n2C	>57	i
Cn1c(C(=O)OCC(=O)NCc2ccco2)cc2sccc21	>57	i
COc1ccccc1CNC(=O)COC(=O)c1cnccn1	>57	i
CC(C)(C)c1[nH]nc2c1C(c1ccc(OC(=O)c3ccco3)cc1)C(C#N)=C(N)O2 (stereo not given)	>57	i
COc1ccc(OC)c(C(c2nnnn2CCc2ccccc2)N2CCN(c3ccccc3)CC2)c1 (stereo not given)	>57	i
O=C(Nc1c(C(=O)O)[nH]c2ccccc12)NC1CCCCC1	>57	i
Nc1cc(CN2C(=O)c3ccccc3C2=O)cc(Cl)c1O	>57	i
CSC1=NCCN1C(=O)c1ccc(Br)o1	x	i
O=C(Cn1[nH]c(=O)c2ccccc2c1=O)OCC(=O)N1CCCc2ccccc21	>57	i
CCC(=O)Nc1cc(C(C)C)c(O)cc1C	>57	i
Cc1c(C)n(C(=O)CSc2nccn2C)c2ccccc12	>11.4	x
Clc1cccc2sc(N3CCCC3)nc12	>57	i
CN1CCN(C2=NC3(CCCC3)C(C#N)C(=O)N2)CC1 (stereo not given)	>57	i
CCOC(=O)C1=C(C)NC(C)=C(C(=O)OCC)C1C(=O)OCC(=O)N1CCc2ccccc2C1	>57	i
Cc1ccc(CNc2ccc(O)cc2)cc1	>57	i
CCN(CC(=O)Nc1ccc2c(c1)OCCO2)c1ccc(S(=O)(=O)N2CCOCC2)cn1	>57	i
CCOC(=O)Cn1c(=O)oc2cc(S(=O)(=O)NCCCc3ccccc3)ccc21	x	i
Cc1ccnc(NS(=O)(=O)c2cccs2)c1	>57	i
CCOC(=O)c1cc(C(=O)c2cc(F)ccc2O)coc1=N	>57	i
COc1ccc(C(CC(=O)O)NC(=O)c2cccs2)cc1 (stereo not given)	>57	i
Cc1nn(Cc2ccc(Cl)c(Cl)c2)c(C)c1NC(=O)c1cc(C2CC2)on1	x	i
COCCCN(C(=O)Cn1ncc2c(=O)oc3ccc(C)cc3c21)C(C)c1ccncc1 (stereo not given)	x	i
CCOc1ccccc1NC(=O)c1cccc(NC(=O)c2ccco2)c1	>57	i

Going on with the list:
SMILES	Bst PK mod	YjeE inh
CC(C)(Oc1ccc(Cl)cc1)C(=O)NCc1ccncc1	>57	i
CCOC(=O)C1CCN(C(=O)c2ccc(NC(=O)C3CCCO3)cc2)CC1 (stereo not given)	>57	i
CC1(C)CC(=O)C(C=NCCO)=C(O)C1	x	i
O=C1CC(c2ccc(S(=O)(=O)N3CCCCC3)cc2)CN1 (stereo not given)	>57	i
COc1ccc(CN(C2CCCC2)S(=O)(=O)c2ccc(-n3cnnn3)c(OC)c2)cc1OC	>57	i
COc1cccc(CNC(=O)C2CCN(Cc3cnn(-c4ccccc4)c3-n3cccc3)CC2)c1	>57	i
COc1ccc(C2CC(C(F)(F)F)n3nc(C(=O)N(C)Cc4cn(C)nc4C)c(Cl)c3N2)cc1 (stereo not given)	>57	i
O=C(OCc1ccccc1)c1ccccc1O	x	i
COc1ccc(-n2c(=O)c(-c3cn(C)c4ccccc34)nc3cnc(N4CCOCC4)nc32)cc1	x	i
O=S(=O)(c1ccc2c(c1)OCCO2)N1CCC(c2nc3ccccc3[nH]2)CC1	>57	i
CCOC(=O)c1sc(NC(=O)CSc2nnc(-c3ccco3)o2)c(C(=O)OCC)c1C	>57	i
CCOCCCNC(=O)c1ccccc1Br	>57	i
O=C(NCc1ccc2c(c1)OCO2)C1CCCN1C(=O)Nc1ccccc1 (stereo not given)	>57	i
CC(=O)Oc1ccc2oc3c(c2c1)C(=O)CCC3	>57	i
O=C(COc1ccc(Cl)cc1Cl)NC(=O)N1CCOCC1	>11.4	i
CCOC(=O)c1ccccc1NC(=O)CSc1nc2ccccc2n1CC(=O)N1CCCC1	>57	i
CCC(C)[C@@H](NC(=O)OC(C)(C)C)c1nnc(S(=O)(=O)Cc2cccc(C)c2)o1 (stereo not given in full)	>57	i
COc1ccccc1-c1cc(C(=O)NCc2ccc(F)cc2)no1	>57	i
COC(=O)CNC(=O)C12CC3(C)CC(C)(CC(C)(C3)C1)C2	>57	i
Cc1cccc(CCNS(=O)(=O)c2cnc[nH]2)c1	>57	i

Whole records as entered above. Order of screens: Bst PK mod | YjeE inh
`Clc1cccc2sc(N3CCCC3)nc12` is listed as >57 | i
`COc1ccc(-n2c(=O)c(-c3cn(C)c4ccccc34)nc3cnc(N4CCOCC4)nc32)cc1` is listed as x | i
`Cc1c(C(=O)N2CCCCCC2)oc2ccccc12` is listed as >57 | i
`Cn1c(C(=O)OCC(=O)NCc2ccco2)cc2sccc21` is listed as >57 | i

Next entries follow:
SMILES	Bst PK mod	YjeE inh
CC(=O)Nc1ccc2c(c1)CCCN2C(=O)c1ccccc1	>57	i
Cc1nc2sc(C(c3cccs3)N3CCN(C(=O)c4ccco4)CC3)c(O)n2n1 (stereo not given)	x	i
O=C(c1ccc2c(c1)C(=O)N(Cc1ccco1)C2O)N1CCOCC1 (stereo not given)	x	i
COc1ccc2c(C(F)(F)F)cc(=O)oc2c1C	x	i
COC(=O)CSc1nc(C2CC2)nc2ccccc12	x	i
CCN(C1CCCCC1)S(=O)(=O)c1cc(C)ccc1OC	>57	i
Cc1nc2ccc(NC(=O)c3c(-c4ccccc4)noc3C)cc2s1	>57	i
CCOc1cccc(C(=O)Nc2ccc(N3CCN(S(C)(=O)=O)CC3)cc2)c1	>57	i
Cc1nc(NCc2ccccc2)c2nc(-c3ccccc3)n(CCN3CCCCC3)c2n1	x	i
NC(=O)c1c(NC(=O)COC(=O)CSc2nnc(-c3ccc(Cl)cc3)o2)sc2c1CCC2	>57	i
CCCCN(CCCC)S(=O)(=O)c1ccc(C(=O)Nc2nnc(COC)o2)cc1	>57	i
CCCN(CCC)C(=O)CSc1nc2n[nH]c(C)c2c(=N)n1-c1ccc(OCC)cc1	>57	i
CCCC1(CCC)NC(=O)NC1=O	>57	i
CCc1cccc2c(=O)c(C(=O)N3CCOCC3)c[nH]c12	>57	i
CCOCCCNS(=O)(=O)c1ccc(Br)cc1	>57	i
CC(Cc1ccccc1)N/C=C1/CC(=O)NC1=O (stereo not given)	x	i
CCCCOc1ccc(C(=O)Oc2ccc(C)nc2)cc1	>57	i
CS(=O)(=O)N(CC(=O)N1CCC(C(N)=O)CC1)c1ccc(Oc2ccccc2)cc1	x	i
COc1cccc(NC(=O)C2CCN(c3ncccn3)CC2)c1	>57	i
CCOC(=O)c1ccc(Oc2nc(NC(C)(C)C)nc(N(C)C)n2)cc1	>57	i
Cc1ccc(C(=O)CCC2CCCC2=O)cc1 (stereo not given)	>57	i
Cc1ccc(/C(O)=C2/C(=O)C(=O)N(CCN3CCOCC3)C2c2cccnc2)cc1 (stereo not given)	x	i
COc1ccc(CNc2ncnc3ccc(-c4c(C)noc4C)cc23)c(OC)c1	x	i
CCOC(=O)c1ccc(NS(=O)C23CC4CC(CC(C4)C2)C3)cc1 (stereo not given)	x	i
CN(C(=O)OCc1ccccc1)C(CC(N)=O)C(=O)O (stereo not given)	x	i
N#C[C@@H]1[C@@H]2C(=O)N(c3ccc4c(c3)OCCO4)C(=O)[C@@H]2C2c3ccccc3C=CN21 (stereo not given in full)	u	i
C[C@@H](C(=O)NCCc1c[nH]c2ccccc12)[C@H]1C[C@]1(C)[C@H](NC(=O)OCc1ccccc1)c1ccccc1	x	i
CC(C)C[C@@H](CC(=O)N[C@@H](CCC(=O)O)CC(=O)O)NC(=O)[C@@H]1CCCC[C@H]1NC(=O)C[C@@H](NC(=O)C[C@H](CO)NC(=O)[C@@H]1CCCC[C@H]1N)C(C)C	x	i
CC(C)NC[C@H]1CCc2cc(CO)c([N+](=O)[O-])cc2N1	x	i
O=C(CSC1=NC(=O)C(Cc2ccccc2)C(=O)N1)NC1CCCCC1 (stereo not given)	>57	i
CCOC(=O)C(C)Sc1nnc(Cc2cc(=O)[nH]c(=O)[nH]2)n1-c1ccc(OCC)cc1 (stereo not given)	x	i
CN(CC(=O)N1CCN(c2ccccn2)CC1)S(=O)(=O)c1ccccc1	>57	i
O=C(NCc1cccs1)c1ccc2c(c1)ncn2C1CCCC1	x	i
COc1cccc(OC)c1-c1nnc(-c2cn(C)c3ccccc23)o1	>57	i
CCN(CC)S(=O)(=O)c1cccc(C(=O)NC2CCCCC2)c1	>57	i
COc1ccc(OC)c2[nH]c(=O)c(CCNC(=O)c3ccc(S(=O)(=O)N4CCCCC4)cc3)cc12	x	i
COC(=O)c1ccc(C(NC(=O)OCc2ccccc2)/C(=C/[C@@H](C)C(=O)N(C)Cc2ccccc2)c2cccnc2)cc1 (stereo not given in full)	x	i
COc1ccc(S(=O)(=O)N2CCc3ccccc32)cc1C(=O)OCc1c(C)noc1C	>57	i
c1ccc(-n2nnnc2-n2nnc3ccccc32)cc1	>57	i
Cc1noc(C)c1CSCC(=O)OCC(=O)N1CC(=O)Nc2ccccc21	>57	i
CC(C)Cn1cc(C(=O)NCc2cccs2)c2c3ccccc3n(C)c2c1=O	>57	i
Cc1ccc2c(c1)NC(=O)C(CC(=O)NCc1ccc(F)cc1)O2 (stereo not given)	x	i

Laid out differently: results already given.
Every second line gives: Bst PK mod, YjeE inh
> CCOC(=O)c1ccc(NS(=O)C23CC4CC(CC(C4)C2)C3)cc1 (stereo not given)
→ x, i
> O=C(NCc1cccs1)c1ccc2c(c1)ncn2C1CCCC1
→ x, i
> CN(CC(=O)N1CCN(c2ccccn2)CC1)S(=O)(=O)c1ccccc1
→ >57, i
> COc1ccc(S(=O)(=O)N2CCc3ccccc32)cc1C(=O)OCc1c(C)noc1C
→ >57, i
> COc1ccc(CNc2ncnc3ccc(-c4c(C)noc4C)cc23)c(OC)c1
→ x, i
> COc1cccc(OC)c1-c1nnc(-c2cn(C)c3ccccc23)o1
→ >57, i
